Assay outcomes deposited in PubChem by several laboratories.
ALR H2O2 inh: blocks human ALR sulfhydryl oxidase activity | inhibition, % (no concentration beside the values) | P55789 | purified ALR, DTT oxidation, H2O2 HRP-luminol luminescence | AID 485317 | actives 3.8% (n = 290,000);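 active = mean and each replicate at 75% or more; inconclusive = only one of the two met; inactive = neither met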;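 note: stock transfer was 7.5 nL into about 7.5 µL; 0% = neutral wells and 100% = wells with inactivated enzyme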
B2AR ag: activates human beta-2 adrenergic receptor causing internalization | actives 0.43% (n = 340,000) | P07550 | response, % (test concentration not listed) | Am2.2-beta2AR cells, FAP receptor internalization, flow cytometry; reference of the scale not given here;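 active = response above a set limit, near 3 SD of response in nonfluorescent compounds, cut at about 42% in these data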;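 note: stock transfer was 100 nL into about 11 µL; a reference agonist was the positive control; negative values mostly stem from fluorescent compounds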
Vif TR-FRET: inhibitors of Vif binding to APOBEC3G peptide, primary screen, biochemical, TR-FRET, GST-Vif 1-94, biotin-A3G peptide, dose response retest (AID 1117319); actives 0.57% (n = 260,000); inhibition, %, or IC50 in µM where a hit was titrated; TR-FRET GST-Vif / biotin-A3G peptide binding; higher % means a stronger effect; test concentration not given here; strong numbers were not always called active;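 active = above the screen mean plus three standard deviations and confirmed in dose response; inconclusive = results disagree or hit not tested in dose response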;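 note: Vif residues 1-94 fused to GST binding biotinylated APOBEC3G peptide 110-148; 0% = full assay without inhibitor and 100% = GST in place of GST-Vif; retest series ran down from 100 µM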
LANA-H2B inh: blocks KSHV LANA binding to histone H2A/H2B. inhibition, % (test concentration not listed). AID 2629. Q9QR71. actives 0.6% (n = 320,000). cell-free LANA-H2A/H2B peptide, fluorescence polarization; in the data active = inhibition mostly above about 10%, no sharp cut-off; inactive = mostly below about 6.7%;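 note: stock transfer was 7.5 nL into about 10 µL; 0% = median of vehicle wells and 100% = median of positive control wells; one replicate is shown; the record names a cut of 25% in any replicate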
Target sequence (Q9QR71 whole entry, looked up): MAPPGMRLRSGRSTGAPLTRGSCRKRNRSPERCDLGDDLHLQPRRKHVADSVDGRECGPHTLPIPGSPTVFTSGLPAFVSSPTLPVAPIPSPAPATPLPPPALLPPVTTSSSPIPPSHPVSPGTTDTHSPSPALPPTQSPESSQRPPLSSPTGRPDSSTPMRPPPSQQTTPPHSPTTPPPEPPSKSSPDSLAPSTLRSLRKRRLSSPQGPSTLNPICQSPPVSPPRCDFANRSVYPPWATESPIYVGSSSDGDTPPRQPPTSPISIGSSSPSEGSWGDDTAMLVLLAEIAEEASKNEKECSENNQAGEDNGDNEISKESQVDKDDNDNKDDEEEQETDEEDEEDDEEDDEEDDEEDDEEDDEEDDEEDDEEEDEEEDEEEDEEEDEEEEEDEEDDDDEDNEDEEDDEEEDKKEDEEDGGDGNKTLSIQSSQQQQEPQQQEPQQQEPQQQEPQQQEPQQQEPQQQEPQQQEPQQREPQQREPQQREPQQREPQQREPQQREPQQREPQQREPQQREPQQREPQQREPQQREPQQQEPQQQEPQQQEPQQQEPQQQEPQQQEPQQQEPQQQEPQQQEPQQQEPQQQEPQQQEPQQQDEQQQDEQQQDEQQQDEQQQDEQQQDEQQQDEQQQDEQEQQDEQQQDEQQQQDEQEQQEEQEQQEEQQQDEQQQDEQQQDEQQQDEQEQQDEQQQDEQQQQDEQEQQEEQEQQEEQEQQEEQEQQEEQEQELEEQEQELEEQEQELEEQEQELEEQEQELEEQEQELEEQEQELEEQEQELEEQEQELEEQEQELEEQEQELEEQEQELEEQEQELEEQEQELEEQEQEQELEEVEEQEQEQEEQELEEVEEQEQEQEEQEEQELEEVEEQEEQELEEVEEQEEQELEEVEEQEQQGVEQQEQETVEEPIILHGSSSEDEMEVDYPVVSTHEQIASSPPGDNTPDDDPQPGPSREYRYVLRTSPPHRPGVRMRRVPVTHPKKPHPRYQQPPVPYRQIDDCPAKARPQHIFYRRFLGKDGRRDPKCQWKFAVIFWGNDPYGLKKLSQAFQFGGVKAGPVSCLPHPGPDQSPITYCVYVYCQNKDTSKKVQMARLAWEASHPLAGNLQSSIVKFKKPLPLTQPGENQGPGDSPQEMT
Calb FLC: C. albicans growth modulation with fluconazole; C. albicans CaCi-2 (fluconazole-resistant clinical isolate) + fluconazole, Alamar Blue growth, 48 h; actives 0.57% (n = 300,000); growth inhibition, % (test concentration not listed);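 active = most replicates above 75%; inconclusive = exactly half above 75%; inactive = most below 75%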;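 note: all wells also contain fluconazole at 8 µg/ml as a sub-toxic cotreatment; 0% = median of DMSO wells and 100% = median of geldanamycin control wells; wells of about 8 µL received 7.5 nL stock; the first replicate is given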
RanGTP-Impb inh: inhibitors of RanGTP-importin-beta interaction, primary screen, biochemical, FRET, CFP-Ran, YFP-importin-beta, homogeneous; cell-free CFP-Ran/YFP-importin-beta FRET ratio; inhibition, % (concentration not given with the values); actives 1.1% (n = 300,000); AID 2216;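 active = most replicates above 15%; inconclusive = exactly half above 15%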;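 note: 0% = DMSO wells and 100% = Ran loaded with GDP instead of GTP; wells of about 40 µL received 100 nL stock; the first replicate is given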
HNF4A DNA FP: change in binding of human HNF4 alpha to DNA; P41235; HNF4a-FITC DNA binding, fluorescence polarization, 1 h; activity change, % at 10 µM; actives 0.3% (n = 360,000); AID 1224865; in the data active = activity change above about 30%, passing the limit was not always enough;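 note: controls were the assay level and a saturating level of protein; the project sought stronger binding though the title names inhibitors; some compounds called inactive have numbers as strong as hits; positive values seem to mean higher polarization but the record does not say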
Numbers without * were called inactive; & = joins results of further samples. Hits appear at their usual frequency; any-hit rate near 6.3%.

What do the screens show for `CCS(=O)(=O)Nc1ccc(C2=NN(C(=O)c3ccco3)C(c3ccc(C)cc3)C2)cc1` (centres undefined)?
ALR H2O2 inh: -2; B2AR ag: -1; Vif TR-FRET: -5%; LANA-H2B inh: -6.1; Calb FLC: -4; RanGTP-Impb inh: inconclusive; HNF4A DNA FP: 0.5

How did Cc1ccc(C2(C(=O)N3CCC(n4nc(-c5ccccc5)oc4=O)CC3)CC2)cc1 do in these assays?
ALR H2O2 inh: 3; B2AR ag: -5; Vif TR-FRET: 5%; LANA-H2B inh: -0.4; Calb FLC: 10; RanGTP-Impb inh: 1.5; HNF4A DNA FP: 3.0

How did Cc1cccc(C)c1NC(=O)CN(C)C(=O)CC1CC2CCC1C2 (centres undefined) do in these assays?
ALR H2O2 inh: 2; B2AR ag: 2; LANA-H2B inh: -4.8; HNF4A DNA FP: 0.9

Results for CCN(CC)CCNC(=O)c1cc2ccccc2nc1Cl ?
ALR H2O2 inh: -2; B2AR ag: -2; Vif TR-FRET: -5%; LANA-H2B inh: -4.3; Calb FLC: -8; RanGTP-Impb inh: 0.4; HNF4A DNA FP: -2.8

What do the screens show for `O=C(Nc1ccccn1)N1CCOCC1`?
ALR H2O2 inh: -5; B2AR ag: -5; Vif TR-FRET: inconclusive; LANA-H2B inh: 0.2; Calb FLC: -3; RanGTP-Impb inh: -1.9; HNF4A DNA FP: -2.0

How did CC(C)OC(=O)CSc1nnc(CNc2ccc(Cl)cc2)n1C do in these assays?
ALR H2O2 inh: 15; B2AR ag: 9; Vif TR-FRET: 0%; LANA-H2B inh: 2.5; Calb FLC: -15; RanGTP-Impb inh: 7.3; HNF4A DNA FP: -0.2

Results for O=C(COC(=O)c1ccc(F)cc1)Nc1ccc2c(c1)OCO2 ?
ALR H2O2 inh: -9; B2AR ag: 3; Vif TR-FRET: 20%; LANA-H2B inh: 0.5; HNF4A DNA FP: -2.5

Results for Cc1ccc(CNC(=O)c2coc(=O)c3ccccc23)o1 ?
ALR H2O2 inh: 40; B2AR ag: -1; Vif TR-FRET: 2%; LANA-H2B inh: -3.9; Calb FLC: 6; RanGTP-Impb inh: 5.6; HNF4A DNA FP: -3.5

Results for CCOC(=O)c1c(C)c(C(=O)NCc2ccccc2OC)c(C)n1C ?
ALR H2O2 inh: -7; B2AR ag: -4; Vif TR-FRET: -6%&-7%; LANA-H2B inh: -0.8; Calb FLC: -3; RanGTP-Impb inh: -0.1; HNF4A DNA FP: 2.1

What do the screens show for `O=S(=O)(Nc1cc(S(=O)(=O)N2CCOCC2)ccc1NCC1CCCO1)c1ccc(F)cc1` (centres undefined)?
ALR H2O2 inh: 29; B2AR ag: 3; Vif TR-FRET: -13%; LANA-H2B inh: 0.3; HNF4A DNA FP: 2.4

Results for Cc1ccc(NC(=O)Nc2cccc(C)n2)c(C)c1 ?
B2AR ag: -11; Vif TR-FRET: 30%; LANA-H2B inh: 1.4; Calb FLC: 7; RanGTP-Impb inh: -3.6; HNF4A DNA FP: 14

What do the screens show for `O=C(COc1ccc(S(=O)(=O)N2CCCC2)cc1Cl)NC1CC1`?
ALR H2O2 inh: -4; B2AR ag: 1; Vif TR-FRET: -1%; LANA-H2B inh: 0.5; Calb FLC: 29; RanGTP-Impb inh: inconclusive; HNF4A DNA FP: 2.8

Results for COc1cc(/C=C/c2cc(C(=O)O)c3ccccc3n2)ccc1OC(F)F ?
ALR H2O2 inh: 5; B2AR ag: 6; Vif TR-FRET: 5%; LANA-H2B inh: -2.4; Calb FLC: 5; RanGTP-Impb inh: -2.0; HNF4A DNA FP: -2.0

What do the screens show for `CC(C)(C)c1ccccc1NC(=O)CN1C(=O)NC(Cc2ccccc2)C1=O` (centres undefined)?
ALR H2O2 inh: -7; B2AR ag: 14; Vif TR-FRET: 2%; LANA-H2B inh: 14; Calb FLC: 3; HNF4A DNA FP: 1.3

Results for Cc1ccc(CC(=O)N(C)CC(=O)Nc2ccc(N3CCOCC3)cc2)cc1C ?
ALR H2O2 inh: 99*; B2AR ag: -3; Vif TR-FRET: 4%; LANA-H2B inh: 10; Calb FLC: -5; RanGTP-Impb inh: -0.3; HNF4A DNA FP: -3.1

How did Nc1nnc(-c2cn(-c3ccccc3)nc2-c2ccc(Cl)cc2)o1 do in these assays?
ALR H2O2 inh: -12; B2AR ag: -6; Vif TR-FRET: -7%; LANA-H2B inh: -4.2; Calb FLC: -10; RanGTP-Impb inh: 1.4; HNF4A DNA FP: 2.3

How did CCOc1ccc(CCNC(=O)c2ccc(CS(=O)Cc3ccccc3Cl)o2)cc1 (centres undefined) do in these assays?
ALR H2O2 inh: 98*; B2AR ag: 2; LANA-H2B inh: -5.1; Calb FLC: 1; RanGTP-Impb inh: -3.1; HNF4A DNA FP: 4.2

Results for CC(Nc1ccnc2cc(Cl)ccc12)c1ccc(S(N)(=O)=O)cc1 (centres undefined) ?
ALR H2O2 inh: -13; B2AR ag: 5; Vif TR-FRET: 20%; LANA-H2B inh: 2.6; Calb FLC: 8; RanGTP-Impb inh: -2.7; HNF4A DNA FP: 2.3

Results for CCO[C@H]1OC(C(=O)NCc2ccccc2)=C[C@@H](c2coc3ccccc3c2=O)[C@@H]1CCCO ?
ALR H2O2 inh: -3; B2AR ag: -9; Vif TR-FRET: 74%; LANA-H2B inh: 0.4; Calb FLC: -10; RanGTP-Impb inh: inconclusive; HNF4A DNA FP: -2.1

Results for O=C(O)C[C@H]1c2cc(F)ccc2S(=O)(=O)N1C1CCCCC1 ?
ALR H2O2 inh: 3; B2AR ag: -1; LANA-H2B inh: 2.1; Calb FLC: 4; RanGTP-Impb inh: -0.1; HNF4A DNA FP: 1.7

Results for CCn1c(N2CCN(C(=O)/C=C/c3ccccc3)CC2)nc2ccccc21 ?
ALR H2O2 inh: 18; B2AR ag: -2; LANA-H2B inh: 0.4; Calb FLC: -1; RanGTP-Impb inh: -8.6; HNF4A DNA FP: 1.3

Results for COc1cccc(C(=O)Nc2nnc(-c3ccc(Cl)cc3)o2)c1 ?
ALR H2O2 inh: 1; B2AR ag: 7; LANA-H2B inh: 3.1; Calb FLC: -2; RanGTP-Impb inh: -3.0; HNF4A DNA FP: 1.9

Results for Cc1cccc(NC(=O)Cc2ccc(-c3ccccc3)cc2)n1 ?
ALR H2O2 inh: -4; B2AR ag: 0; LANA-H2B inh: 10; Calb FLC: -14; RanGTP-Impb inh: -4.3; HNF4A DNA FP: -0.8

What do the screens show for `CCOC(=O)C1CCCN(c2c(C(=O)c3ccccc3)cnc3ccc(OC)cc23)C1` (centres undefined)?
ALR H2O2 inh: 0; B2AR ag: 8; Vif TR-FRET: -25%; LANA-H2B inh: -5.0; Calb FLC: 9; RanGTP-Impb inh: 4.8; HNF4A DNA FP: -0.7

What do the screens show for `CC(=O)c1cccc(NC(=O)N2CCN(S(C)(=O)=O)CC2)c1`?
ALR H2O2 inh: 55; B2AR ag: -3; Vif TR-FRET: -5%; LANA-H2B inh: -5.7; Calb FLC: 3; RanGTP-Impb inh: 0.7; HNF4A DNA FP: -2.8

Results for O=[N+]([O-])c1c(Nc2ccccc2O)ccc2nonc12 ?
ALR H2O2 inh: 10; B2AR ag: -12; Vif TR-FRET: 2%; LANA-H2B inh: 1.6; Calb FLC: -26; RanGTP-Impb inh: inconclusive; HNF4A DNA FP: -0.8

What do the screens show for `Cc1ccc(C2(C)NC(=O)N(CC(=O)c3ccc4c(c3)OCCO4)C2=O)cc1` (centres undefined)?
ALR H2O2 inh: 3; B2AR ag: -1; LANA-H2B inh: -3.4; HNF4A DNA FP: -0.2

What do the screens show for `COc1ccc(CN(CC(=O)NCc2ccccc2)C(=O)c2csnn2)cc1`?
ALR H2O2 inh: -7; B2AR ag: -3; Vif TR-FRET: 18%; LANA-H2B inh: 2.8; Calb FLC: 1; RanGTP-Impb inh: -9.0; HNF4A DNA FP: -0.8

What do the screens show for `CCOc1cc(/C=N/Nc2cc(C)nc3ccc(C)cc23)ccc1O`?
ALR H2O2 inh: inconclusive; B2AR ag: 12; LANA-H2B inh: -3.5; Calb FLC: 5; RanGTP-Impb inh: -1.7; HNF4A DNA FP: 0.4

What do the screens show for `CC(C)(C)OC(=O)N1CCC(NC(=O)c2[nH]cnc2C(=O)Nc2ccc(Cl)cc2)CC1`?
ALR H2O2 inh: 3; B2AR ag: 25; LANA-H2B inh: 1.2; HNF4A DNA FP: -2.1

Next section, overlapping the part above by 2 compounds.
What do the screens show for `CCOc1cc(/C=N/Nc2cc(C)nc3ccc(C)cc23)ccc1O`?
ALR H2O2 inh: inconclusive; B2AR ag: 12; LANA-H2B inh: -3.5; Calb FLC: 5; RanGTP-Impb inh: -1.7; HNF4A DNA FP: 0.4

What do the screens show for `CC(C)(C)OC(=O)N1CCC(NC(=O)c2[nH]cnc2C(=O)Nc2ccc(Cl)cc2)CC1`?
ALR H2O2 inh: 3; B2AR ag: 25; LANA-H2B inh: 1.2; HNF4A DNA FP: -2.1

Results for CCCN(CCC)CCCNC(=O)CCNS(=O)(=O)c1ccc(Br)cc1 ?
ALR H2O2 inh: 5; B2AR ag: 2; Vif TR-FRET: 18%; LANA-H2B inh: 0.7; Calb FLC: -4; RanGTP-Impb inh: -3.3; HNF4A DNA FP: 0.4

What do the screens show for `CCN(CC(=O)Nc1c(F)cccc1F)C(=O)CCOc1ccc(C)cc1`?
ALR H2O2 inh: 6; B2AR ag: -8; Vif TR-FRET: 16%; LANA-H2B inh: 0.4; Calb FLC: -2; HNF4A DNA FP: 4.4

Results for CCN(Cc1ccncc1)Cc1c(O)ccc2cc(Br)ccc12 ?
Vif TR-FRET: -8%; Calb FLC: -2; RanGTP-Impb inh: inconclusive; HNF4A DNA FP: -4.0

How did O=C(Cc1ccc(Cl)c(Cl)c1)N/N=C/c1cccnc1 do in these assays?
ALR H2O2 inh: -13; B2AR ag: -16; Vif TR-FRET: 2%; LANA-H2B inh: -4.4; Calb FLC: 0; RanGTP-Impb inh: 1.7; HNF4A DNA FP: 8.3

How did CCOC(=O)/C=c1\s/c(=C\c2ccc(C(F)(F)F)cc2)c(=O)n1CC(=O)NCc1ccco1 do in these assays?
ALR H2O2 inh: -5; B2AR ag: -5; Vif TR-FRET: 20%; LANA-H2B inh: -7.4; Calb FLC: -2; RanGTP-Impb inh: -8.4; HNF4A DNA FP: 9.5

What do the screens show for `CN(CC(=O)Nc1cccc(F)c1)C(=O)c1ccc(COc2ccccc2)o1`?
B2AR ag: 0; LANA-H2B inh: -0.7; Calb FLC: -6; RanGTP-Impb inh: 2.5; HNF4A DNA FP: 0.7

How did CCc1ccc(C(=O)N2CCCN(C)CC2)s1 do in these assays?
ALR H2O2 inh: 0; B2AR ag: -3; LANA-H2B inh: -6.3; HNF4A DNA FP: -4.2

What do the screens show for `CCC(CO)Oc1cc(NC(=O)Cc2ccccc2F)c2ncn(C(C)C)c2c1` (centres undefined)?
ALR H2O2 inh: 0; B2AR ag: 6; LANA-H2B inh: 3.2; HNF4A DNA FP: -4.2

What do the screens show for `NC(=O)C1CCN(C(=O)CSc2nc3ccccc3o2)CC1`?
B2AR ag: -4; Vif TR-FRET: -1%; Calb FLC: 4; RanGTP-Impb inh: -4.6; HNF4A DNA FP: -2.7

Results for COc1ccc(C(=O)N2CCC(C(=O)Nc3ccc(C)cc3)CC2)cc1 ?
ALR H2O2 inh: -31; B2AR ag: -4; LANA-H2B inh: -2.7; Calb FLC: 9; RanGTP-Impb inh: 1.7; HNF4A DNA FP: -1.1

How did COc1cc(OC)c(NC(C)C(=O)NCc2ccccc2)cc1Cl (centres undefined) do in these assays?
ALR H2O2 inh: 94*; B2AR ag: -2; Vif TR-FRET: -3%; LANA-H2B inh: -1.6; Calb FLC: 8; RanGTP-Impb inh: -2.5; HNF4A DNA FP: 1.5
